TRPML1 agonist = qHTS for Agonists of the Human Mucolipin Transient Receptor Potential 1 (TRPML1). activation, % (concentration not given with the values). AID 624414, 2012. actives 0.12% (n = 410,000). TRPML1-expressing cells, Ca2+ dye fluorescence, FDSS; host cell line not named in the record; reference of the full effect not given here. Mucolipin-1 (Homo sapiens), Q9GZU1; in the data active = activation above about 50%; inconclusive = about 30% to 50%; inactive = below about 30%; further: 0% is about no effect; the text of the record puts the active cut at 80%
Target sequence (Q9GZU1 whole entry, looked up): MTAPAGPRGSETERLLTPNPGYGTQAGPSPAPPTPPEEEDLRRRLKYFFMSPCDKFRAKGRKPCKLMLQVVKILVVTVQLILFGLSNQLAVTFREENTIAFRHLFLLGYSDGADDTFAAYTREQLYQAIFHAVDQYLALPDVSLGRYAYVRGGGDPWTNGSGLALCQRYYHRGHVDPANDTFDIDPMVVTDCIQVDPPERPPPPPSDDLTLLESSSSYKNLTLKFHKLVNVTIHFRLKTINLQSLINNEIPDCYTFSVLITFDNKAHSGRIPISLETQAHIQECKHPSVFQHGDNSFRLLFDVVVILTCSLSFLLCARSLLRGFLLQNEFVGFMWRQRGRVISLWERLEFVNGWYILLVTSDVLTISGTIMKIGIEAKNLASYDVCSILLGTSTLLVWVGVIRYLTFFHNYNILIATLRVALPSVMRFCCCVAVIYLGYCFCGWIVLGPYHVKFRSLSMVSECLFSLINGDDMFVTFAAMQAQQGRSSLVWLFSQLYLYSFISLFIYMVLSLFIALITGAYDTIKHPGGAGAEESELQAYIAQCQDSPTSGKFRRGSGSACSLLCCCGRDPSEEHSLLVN
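Calcium fluorescence on an FDSS kinetic reader gave the read-out. Tet-induced TRPML1-DL cells were plated overnight, dye-loaded (Ca8 with quencher, 45-90 min, room temperature, dark), then read 110 s after compound addition, and again 110 s after 4uM final 54-4 (EC80).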
D2 PAM = Beta-Arrestin HTS for Positive Allosteric Modulators of the Human D2 Dopamine Receptor: Potentiators; actives 0.23% (n = 360,000); DiscoveRx D2 beta-arrestin cells, luminescence, 90 min; 100% = 57 uM dopamine signal; potentiation, % (no concentration beside the values); D(2) dopamine receptor (Homo sapiens), P14416; active = potentiation of 50% or more; inconclusive = 30% to 50%; inactive = 30% or less;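 further: compound concentration not given in the record; tested on top of an EC20 dose of dopamine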
Target sequence (P14416 whole entry, looked up): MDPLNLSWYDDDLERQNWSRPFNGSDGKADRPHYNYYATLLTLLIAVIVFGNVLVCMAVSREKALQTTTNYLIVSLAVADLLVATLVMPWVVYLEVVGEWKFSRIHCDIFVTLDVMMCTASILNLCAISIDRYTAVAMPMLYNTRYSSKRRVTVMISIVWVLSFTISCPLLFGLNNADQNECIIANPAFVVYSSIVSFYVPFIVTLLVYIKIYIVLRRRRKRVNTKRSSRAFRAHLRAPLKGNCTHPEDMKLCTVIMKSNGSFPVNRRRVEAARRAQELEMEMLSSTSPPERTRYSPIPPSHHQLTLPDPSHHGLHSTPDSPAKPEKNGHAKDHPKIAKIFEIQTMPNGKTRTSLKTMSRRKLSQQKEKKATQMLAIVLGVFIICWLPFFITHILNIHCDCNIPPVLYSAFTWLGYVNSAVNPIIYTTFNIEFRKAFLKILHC
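PathHunter D2 cells, attached overnight at 37 deg C, received compound in DMSO plus dopamine at EC20 (50 nM final) for 90 min at 37 deg C. Beta-arrestin recruitment was read as luminescence after 1 h with detection reagent at ambient temperature.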
D2 agonist = Beta-Arrestin HTS for Positive Allosteric Modulators of the Human D2 Dopamine Receptor: Agonists. activation, % (concentration not given with the values). actives 0.084% (n = 360,000). DiscoveRx PathHunter D2 beta-arrestin, luminescence, 90 min; 100% = 57 uM dopamine signal; in the data active = activation above about 40%; inconclusive = about 15% to 40%; inactive = below about 15%; further: compound concentration not given in the record; the text of the record calls up to 30% inactive
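Agonist mode: compounds alone added to overnight-plated D2 PathHunter cells for 90 min at 37 C, with 57 uM final dopamine (EC100) defining full response. Beta-arrestin recruitment detected by chemiluminescent reagent, read after 1 h at ambient temperature.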
Six1-Eya2 inh = qHTS Assay for Inhibitors of the Six1/Eya2 Interaction; AlphaScreen GST-Six1/His-Eya2 binding, biochemical; active compounds read low; control for the full effect not named in the record; activity change, % (concentration not given with the values); actives 0.56% (n = 360,000); AID 651725, 2012; in the data active = activity change below about -65%; inconclusive = about -30% to -65%; inactive = above about -30%; further: on the % scale 0 is the no-effect control and ±100 the full control effect
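Compounds are tested against tagged Six1 and Eya2 proteins bridged by glutathione donor and nickel acceptor beads; after a one-hour incubation at 37 °C without light, AlphaScreen emission is recorded.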
PINK1 modulator = A Quantitative High throughput Screen to Identify Chemical Modulators of PINK1 Expression. PINK1 immunofluorescence, high-content cytometry, 24 h. Potency, µM (titrated, usually from 76.6 µM), inactives show at the top dose activation (PINK1 increase), hits mostly activators. actives 0.2% (n = 410,000). AID 624263, 2012; active = well fitted activation curve with a large enough effect; inconclusive = small, poorly fitted or top-dose-only effect; inactive = flat fitted curve, though single readings scatter; cell line not stated here;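 further: potency means the concentration at half of the fitted maximal effect; % of control where 0% means no effect; nearly all actives have a fitted effect of over 65% in size; a mitochondrial uncoupler was the plate control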
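Decision-based qHTS: stable cells, 24 h exposure to five compound concentrations, CCCP as control. Fixed cells stained for PINK1 plus nuclear, mitochondrial and cell markers, cytometer read.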
TRPML1 inh = qHTS for Inhibitors of the Human Mucolipin Transient Receptor Potential 1 (TRPML1); TRPML1-inducible cells, Ca2+ dye fluorescence, FDSS; active compounds read low; inhibition of EC80 agonist-evoked calcium signal; activity change, negative = inhibition, % (test concentration not listed); Mucolipin-1 (Homo sapiens), Q9GZU1; actives 0.02% (n = 390,000); AID 624415, 2012; in the data active means activity change below about -50%; inconclusive means about -30% to -50%; inactive means above about -30%;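 further: stimulus is agonist 54-4 at its EC80 concentration; on the % scale 0 is the no-effect control and ±100 the full control effect; compound concentration not given in the record; the text of the record puts the active cut at -80%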
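TRPML1-DL cells, Tet-induced overnight (~16 h, 37 °C) at 1,500 cells/well, were loaded with Ca8 no-wash dye plus quencher for 45-90 min at room temperature. Compounds were pinned during FDSS kinetic reading; agonist 54-4 at EC80 (4 uM final) then added.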
* marks the source's active call; other numbers are inactive results; ? = inconclusive; . = not tested or not shown; [ ] = another dose, or the depositor's remark.

Every second line gives: TRPML1 agonist, D2 PAM, D2 agonist, Six1-Eya2 inh, PINK1 modulator, TRPML1 inh
COc1ccccc1N(C)S(=O)(=O)c1ccc(C(=O)NCCc2ccc(F)cc2)cc1
  -0.4, -6, 0.5, -4, -1.7%, -8
Cc1cccc(NC(=O)CSc2nc(-c3cccc(C)c3)nc3c2Cc2c(CO)cnc(C)c2O3)c1
  0.4, ., ., ., -0.3%, -9
N#Cc1cc(-c2ccccc2)nc(N2CCNCC2)n1
  -0.3, -23, -6.1, 52, -0.1%, 5
COc1ccccc1-c1cc(C(F)(F)F)nc(S(=O)(=O)CCCC(=O)Nc2cc(Br)ccc2O)n1
  -0.5, ., ., ., -0.9%, -7
CCOC(=O)c1sc(Nc2nc3ccc(OC)cc3s2)cc1C
  1.1, 18, -6.0, 2, ?, 9
Cc1ccc(NC(=O)c2cc(-c3ccccc3O)n[nH]2)cc1Cl
  0.4, -1, -0.6, 0, 1.9%, 2
Cn1c(SCC(=O)NC2CC2)nnc1-c1ccccc1
  -0.1, -2, -0.3, 7, 1.4%, ?
CCCCCOC(=O)C1=C(C)NC(=O)NC1c1ccccc1OCC (stereo unspecified)
  0.9, -2, 0.4, 0, -0.9%, -15
O=C(O)/C=C\C(=O)NC1CCCCC1
  5.5, 1, -5.0, 5, -0.6%, -3
CCOc1ccccc1NS(=O)(=O)c1c(-c2ccc(C)cc2)csc1C(=O)OC
  0.6, ., ., ., 1.7%, -12
Cc1cc(Cl)ccc1OCC(=O)NNC(=O)C1CCN(c2ncnc3sc(C)c(C)c23)CC1
  0.5, 10, 5.1, -9, 1.1%, -4
COC(=O)c1cc(S(=O)(=O)N2CCN(c3ccc(C)cc3C)CC2)cn1C
  1.2, ., ., ., 0.7%, 12
C=CC(=O)Nc1cccc(N(C)c2ccnc(Nc3ccc(N4CCN(C)CC4)cc3)n2)c1
  2.8, -17, -2.9, -29, -1.9%, 19
Cc1nc(SCC(=O)NCc2ccccc2)c2c(=O)n(C)c(=O)n(C)c2n1
  -0.3, -4, -2.1, 3, 0.4%, 2
COc1cccc(CCN2CCC(CNS(=O)(=O)c3cc(-c4cc(C)no4)ccc3OC)CC2)c1
  0.2, -34, -4.6, -8, 3.7%, -3

Other results.
Every second line gives: TRPML1 agonist, D2 PAM, D2 agonist, Six1-Eya2 inh, PINK1 modulator, TRPML1 inh
O=C(COC(=O)/C=C/c1cccs1)Nc1cccc(S(=O)(=O)N2CCCC2)c1
  2.1, -2, -4.2, -20, 10%, 28
Cc1ccnc(NC(=O)C2CCN(S(=O)(=O)c3cccc(C(F)(F)F)c3)CC2)c1
  2.1, 6, -1.1, 2, -0.6%, 22
C=CCn1c(SCC(=O)NC)nnc1C12CC3CC(CC(C3)C1)C2
  0.3, -7, -1.3, -1, 1.1%, -2
CCc1ccc(NC(=O)COC(=O)c2nc3nc(C)cc(C)n3n2)cc1
  3.1, -11, 0.5, 6, 2.4%, 4
CCOc1ccc(NC(=S)N2CCCCCC2)cc1
  -0.7, -13, -0.8, -14, 1.4%, -2
CCOC(=O)C1(CC2CC2)CCN(C(=O)c2cc(OC)nc3ccccc23)CC1
  0.6, -3, 0.1, 1, 0.2%, -10
Cc1ccc(OCC(=O)Nc2ccc([N+](=O)[O-])cn2)cc1C
  -0.2, -17, 0.0, 3, 3.1%, -7
Cc1ccc(S(=O)(=O)Nc2ccccc2CNc2cccc(C)n2)cc1
  0.2, -5, -1.0, -6, 5.7%, 46
Fc1cccc(F)c1-n1c(CN2CCOCC2)csc1=S
  0.7, -9, 0.1, 2, 1.1%, -13
CCCCN(C(=O)CCC(=O)Nc1cc(C)on1)C(C(=O)NC1CCCC1)c1ccc(OCC)cc1 (stereo unspecified)
  0.3, -7, 2.9, 1, 5.8%, -3
Cc1nn(Cc2ccccc2)c(Cl)c1C(=O)NCCc1ccccc1
  1.3, -2, 1.4, -2, -0.8%, 19
CCCC(=O)Nc1ccccc1NC(=O)c1ccc2c(c1)OCO2
  0.4, 0, -3.5, -2, 1.8%, 8
O=C(Cn1nnc(-c2ccc3c(c2)OCO3)n1)Nc1ccccc1C(=O)O
  0.1, -9, -5.2, -9, -1.1%, -4
O=C(Cn1nnc(-c2ccc3c(c2)OCO3)n1)N1CCOCC1
  0.8, -10, -0.8, 8, -1.9%, -11
COc1cc(C(C[N+](=O)[O-])c2c(C)cc3ccccn23)ccc1O (stereo unspecified)
  0.0, -4, -0.2, -11, 8.1%, -18

Whole records, looked up by structure. Values in the order: TRPML1 agonist | D2 PAM | D2 agonist | Six1-Eya2 inh | PINK1 modulator | TRPML1 inh
Shown for Cc1ccnc(NC(=O)C2CCN(S(=O)(=O)c3cccc(C(F)(F)F)c3)CC2)c1 = 2.1 | 6 | -1.1 | 2 | -0.6% | 22
Shown for Cc1ccc(NC(=O)c2cc(-c3ccccc3O)n[nH]2)cc1Cl = 0.4 | -1 | -0.6 | 0 | 1.9% | 2
Shown for CCOc1ccccc1NS(=O)(=O)c1c(-c2ccc(C)cc2)csc1C(=O)OC = 0.6 | . | . | . | 1.7% | -12
Shown for CCOC(=O)C1(CC2CC2)CCN(C(=O)c2cc(OC)nc3ccccc23)CC1 = 0.6 | -3 | 0.1 | 1 | 0.2% | -10

Fetched by compound from the list above, 5 records:
Every second line gives: TRPML1 agonist, D2 PAM, D2 agonist, Six1-Eya2 inh, PINK1 modulator, TRPML1 inh
Cc1ccc(S(=O)(=O)Nc2ccccc2CNc2cccc(C)n2)cc1
  0.2, -5, -1.0, -6, 5.7%, 46
O=C(Cn1nnc(-c2ccc3c(c2)OCO3)n1)Nc1ccccc1C(=O)O
  0.1, -9, -5.2, -9, -1.1%, -4
CCOc1ccc(NC(=S)N2CCCCCC2)cc1
  -0.7, -13, -0.8, -14, 1.4%, -2
Fc1cccc(F)c1-n1c(CN2CCOCC2)csc1=S
  0.7, -9, 0.1, 2, 1.1%, -13
COc1cc(C(C[N+](=O)[O-])c2c(C)cc3ccccn23)ccc1O (stereo unspecified)
  0.0, -4, -0.2, -11, 8.1%, -18

Remaining list, next part.
Every second line gives: TRPML1 agonist, D2 PAM, D2 agonist, Six1-Eya2 inh, PINK1 modulator, TRPML1 inh
Cc1ccc(N=C2N=C(N)c3ccccc32)cc1C
  -0.2, -19, -3.4, -6, 0.6%[38.3 µM], -5
CCCCOc1ccccc1NC(=O)Cn1c(-c2cncs2)nc2ccccc21
  -0.2, ., ., ., 0.2%, 3
Cc1ccc(NC(=S)Nc2ccc(F)cc2)cc1C
  1.5, -3, -1.0, 0, 3.5%, 26
Cn1ccc(CC(=O)N2CCC(N3CCC(C(=O)N4CCCC4)CC3)CC2)c1
  0.9, -1, 0.8, 0, 1.6%, 13
Nc1c(Cl)c(Cl)nc(C(=O)OCC(=O)N2CCCC2=O)c1Cl
  -0.4, -7, -6.0, -2, -1.3%, -5
Cc1ccc(CCN=c2c([N+](=O)[O-])nn(-c3ccccc3)n2O)cc1
  1.5, 67*, ?, -30, 3.0%, 19
COc1ccc(CCNC(=O)C2CCCN2C(=O)Nc2cccc(C(C)=O)c2)cc1OC (stereo unspecified)
  0.6, -26, -2.3, 6, 0.5%, -5
CC(C)CC1(C2CCCC2)NC(=O)NC1=O (stereo unspecified)
  0.4, -4, -5.7, 9, -1.8%, -19
COc1ccc(C)cc1-n1cnc2sc(C)c(C)c2c1=O
  0.5, -11, -1.7, 0, 0.1%, 8
Brc1ccc(-c2nn3c(-c4ccco4)nnc3s2)o1
  -0.3, -10, -4.5, ?, -13%[38.3 µM], 0
Cc1nc(-c2cccc(NC(=O)c3ccc(-n4nccc4C)cc3)c2)cs1
  1.1, -14, -5.8, -11, -0.7%, 14
COc1cc2c(cc1OC)C(c1cc(Br)c(OC)c(OC)c1)CC(=O)N2 (stereo unspecified)
  ., -14, -4.0, 5, 9.0%, .
Cc1ccc(NC(=O)CN2C(=O)NC(C)(CC(C)C)C2=O)c(Br)c1 (stereo unspecified)
  -0.7, -2, -2.0, -2, -3.2%, 11
CCS(=O)(=O)NCCc1cc2ccc(C)cc2[nH]c1=O
  0.6, -12, 1.0, 9, -2.5%, 21
Cc1ccc(C(=O)COC(=O)CNS(=O)(=O)c2ccc(C)cc2)cc1
  -0.2, 6, -7.8, -1, -0.9%, -6

The list continues.
molecule | TRPML1 agonist | D2 PAM | D2 agonist | Six1-Eya2 inh | PINK1 modulator | TRPML1 inh
O=C(Cn1cc2c(n1)CCCCC2)NCCCN1CCOCC1 | -0.2 | -1 | 0.3 | 5 | 2.4% | -3
C/C(=N/Oc1nc(C)cc(C)n1)c1ccccc1 | 0.6 | -7 | -3.7 | 2 | 0.3% | 3
O=C(/C=C/[C@H]1O[C@@H](n2ccc(=O)[nH]c2=O)[C@H](O)[C@@H]1O)NCc1cccc2ccccc12 | 1.4 | -1 | -3.4 | 0 | 3.2% | -15
COc1ccccc1C(=O)Nc1ccnn1C1CCN(CCC(C)c2ccc(C)o2)CC1 (stereo unspecified) | 0.2 | -20 | -4.4 | -12 | -0.5% | -2
COCCCNc1nc2c(-c3cccc(Br)c3)nnn2c2ccccc12 | -0.9 | . | . | . | -0.1% | -5
Cc1ccc(NC(=O)c2cc(NC(=O)/C=C\C(=O)O)ccc2N2CCCCC2)cc1 | 1.7 | -7 | -3.7 | -19 | 3.8% | 0
OCCC1CN(Cc2cccc3nccnc23)CCN1Cc1ccc(F)cc1 (stereo unspecified) | -0.7 | -27 | -3.0 | 6 | 0.2% | 10
COc1ccc(CCNC(=O)CSc2nnc(CNC(=O)c3cccs3)o2)cc1OC | 4.0 | 20 | 0.1 | -1 | -2.4% | -12
COc1cccc(NS(=O)(=O)c2ccc3[nH]cc(C(=O)NCCc4ccccc4)c(=O)c3c2)c1 | -0.2 | . | . | . | 0.4% | -10
O=C(c1ccco1)N1CCN(C(=O)C2CC(c3ccc(Cl)cc3)=NO2)CC1 (stereo unspecified) | -0.6 | -23 | 0.5 | 1 | -1.6% | 17
O=C(COC(=O)CNS(=O)(=O)c1cccc(Br)c1)Nc1ccccc1Sc1ccccc1 | 0.7 | -12 | -2.7 | -5 | 0.6% | -21
Cc1cc(C(=O)N2CCCC2(C)C(=O)NCC(C)C)nn1C(C)(C)C (stereo unspecified) | -0.6 | -6 | -5.9 | 10 | 2.8% | .

Screens: PubChem BioAssay, National Center for Advancing Translational Sciences (NCATS)
